Source: PubChem BioAssay (PCMD)
Biofilm kill mix = mixture kills Candida albicans biofilm cells; 0.02% of 120,000 active; AID 1242; C. albicans biofilm persisters + clotrimazole, fluorescence viability; primary screen in compound mixtures of four per well; inhibition, % at 7.6 µM;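 active = inhibition above 30.3% in the primary screen of four-compound pools, then above 30% when the compound was retested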;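 note: compounds exposed to preformed 24 h biofilms for 48 h; the number belongs to the whole pool; some results filed as inactive read as strong as hits; inactives centre near 12; 0% = biofilm with clotrimazole alone and 100% = kill control; retested singly at about 60 µM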
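Probe or stimulus – Clotrimazole 50 µg/mL co-treatment · System – C. albicans biofilms · Schedule – 24 h biofilm formation, then 48 h compound exposure, 37 °C · Evaluation – percent inhibition of biofilm viability · Technique – 2-h Alamar Blue fluorescence, 535/590 nm excitation/emission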
An asterisk follows results filed as active; & = joins results of further samples. This is a subset. The share of hits here may be higher or lower than overall.

SMILES	Biofilm kill mix
O=C1OC(c2cccs2)=N/C1=C/c1ccc(-c2cccc(C(=O)O)c2)o1	16.3
COc1cc2c(c(O)c1OC)-c1c(cc(OC)c(OC)c1O)[C@@H](OC(=O)c1ccccc1)[C@@](C)(O)[C@@H](C)[C@@H]2OC(C)=O	11.7
Cc1cc(C(=O)Nc2c[nH]c(=O)[nH]c2=O)ccc1[N+](=O)[O-]	-5.6
Oc1ccc(/C=N/Nc2nc(N3CCCC3)nc(N3CCCC3)n2)cc1O	34.2
CS(=O)(=O)N(CC(=O)N1CCCC1)Cc1ccc(Cl)cc1	8.0
CCOC(=O)c1cc(-c2ccccc2)sc1NC(=O)C(C)OC(=O)c1cccc(S(=O)(=O)N(C)C)c1 (configuration not stated)	7.9
Cc1ccc(NC(=S)N(CCN(C)C)C(C)c2ccco2)c(C)c1 (configuration not stated)	18.5
C=CCOc1cccc(CNc2ccc3[nH]c(=O)[nH]c3c2)c1	5.7
CCN(CC)C(=O)CSc1nc(C)cc(C)c1C#N	19.1
C=CCN=c1scc(-c2ccccc2)n1/N=C/c1ccccn1	10.3
Cc1cccc(NC(=O)c2oc(=O)c3ccccc3c2-c2ccccc2)c1C	-15.6
Cc1ccnc2nc(C(=O)OCC(=O)NC(=O)NCc3ccco3)nn12	20.1
COc1ccc2c3c([nH]c2c1)C(C)N(C(C)=O)CC3 (configuration not stated)	15.9
O=C(NC1=NCCS1)c1cccc(OC(F)F)c1	13.1
CC(C)N(Cc1ccccc1)C(=O)CSc1nccn1C	-2.5
COC(=O)C1=C(O)C(C(=O)OC)C(c2ccc(C)cc2)C(C#N)(C#N)C1c1ccc(C)cc1 (configuration not stated)	11.2
CCO[C@@H]1OC(C(=O)N2CCN(Cc3ccccc3)CC2)=C[C@H](C2CC2)[C@H]1CCCO	17.0
CCn1c(SCC(N)=O)nnc1-c1ccc2c(c1)OCO2	15.5
Cc1onc(-c2ccccc2)c1C(=O)NNC(=S)NC(=O)/C=C/c1ccccc1	4.7
N/C(CC1CC1(Cl)Cl)=N\OC(=O)c1ccccc1 (configuration not stated)	9.7
COc1ccc2nc(Cl)c(/C=N/Nc3ccccn3)cc2c1	8.8
CCN1CCN(C(=O)/C=C/c2ccc(C)o2)CC1	21.2
CCOC(=O)C(=O)N1c2ccccc2C(N(C(=O)C(=O)OCC)c2ccccc2)CC1C (configuration not stated)	17.9
O=C(COc1ccc(C(=O)NCCc2ccccc2)cc1)Nc1ccccc1	8.0
COc1ccc(NC(=O)/C=C/c2ccccc2)c([N+](=O)[O-])c1	-12.2
(next part)
SMILES	Biofilm kill mix
COc1ccc2c(c1OC)C(=O)N1N=C(c3ccc(Cl)cc3)CC21 (configuration not stated)	19.6
COC(=O)c1cccc(C23CC4(C2)[C@H](CN(CC2CCCCC2)[C@@H]4c2ccccc2)C3c2ccccc2)c1 (some centres not stated)	13.8
O=C(O)CSc1ccnc2cc(Cl)ccc12	31.2
O=C(Nc1ccccc1)Nc1scc2c1c(=O)oc1ccccc12	24.1
CCOC(=O)Cn1cc(C#N)c2cccc(CC)c21	17.5
Cc1ccc(N2C(SCC(=O)O)=NC(=Nc3cccc(C)c3)C23CCCC3)cc1	24.8
COC(=O)c1ccc(C(=O)N2CCCC(CNC(=O)c3ccccc3Cl)C2)cc1 (configuration not stated)	23.5
COc1c(OC)c(O)c2c(=O)cc(-c3c(O)cccc3O)oc2c1OC	12.2
CC(C)OC(=O)/C(=C/c1cccnc1)NC(=O)c1ccccc1	9.1
CC(C)CCn1cnc2c1c(=O)n(C)c(=O)n2C	10.8
CC(=O)N(C)c1ccc(NC(=S)Nc2ccc(C(C)C)cc2)cc1	4.4
COc1ccccc1C(O)P(=O)(OC1CCCCC1)OC1CCCCC1 (configuration not stated)	12.9
CNC(=O)c1nc(C)c(C2(C)CC(c3ccccc3)=NO2)s1 (configuration not stated)	16.2
COc1cc(C2SCC(=O)N2c2c(C)n(C)n(-c3ccccc3)c2=O)ccc1O (configuration not stated)	22.0
Cc1ccc(C(=O)/C=C/Nc2ccc(S(=O)(=O)Nc3onc(C)c3C)cc2)cc1	11.1
N#Cc1ccsc1NC(=O)CSc1nnnn1-c1ccc(O)cc1	4.3
Cc1nc(-c2ccc(S(=O)(=O)N3CCN(C4c5ccccc5-c5ccccc54)CC3)s2)cs1	11.4
C/C(N)=C(/C#N)C(=O)COC(=O)CNS(=O)(=O)c1c(F)cccc1F	10.7
CCOc1ccc(NC(=O)CCCCn2c(=O)[nH]c3ccsc3c2=O)cc1	6.0
COCCn1c(/C=C/c2ccccc2)nc2ccccc21	-9.3
O=C(CC(NC(=O)c1ccccc1Cl)c1ccccc1)NCCc1ccc(Cl)cc1 (configuration not stated)	10.0
c1ccc(-c2ccc(C3=Nn4c(nnc4-c4cccs4)SC3)cc2)cc1	21.0
O=c1cc(-c2ccc(F)cc2F)[nH]c2ccccc12	13.6
Cc1ccc2nc(-c3ccc(NC(=O)CN(C)S(=O)(=O)c4ccccc4)cc3)sc2c1	2.0
CC(CCc1ccccc1)NC(=O)CN1CCSc2ccccc21 (configuration not stated)	11.3
The list continues:
SMILES	Biofilm kill mix
C=C1CCN([C@@H](C)C(=O)NCc2ccc(OC)cc2)S(=O)(=O)c2ccccc21	0.8
O=C(/C=C/c1ccc(Cl)c(Cl)c1)N1CCc2ccccc21	-1.1
COC(=O)c1sccc1N/N=C/c1cccc(OC)c1O	16.7
COc1ccc(-c2csc3nc(-c4cccnc4)nc(Cl)c23)cc1OC	11.2
Cc1ccc2c(c1)C(=O)N(CCCCO)C2=O	13.7
O=C1CCC(=O)N1c1cccc(OS(=O)(=O)c2ccccc2)c1	10.6
Cc1cccc(OCCNC(=O)c2cccc(Oc3ccc(C(F)(F)F)cc3[N+](=O)[O-])c2)c1	16.1
CCOc1ccccc1NC(=O)C(OC(=O)C1CC1)c1ccccc1 (configuration not stated)	15.9
CS(=O)(=O)N1CCN=C1SCc1ccc([N+](=O)[O-])cc1	15.8
CC1(C)CC(=O)c2c(nn(-c3ccccc3)c2-c2ccncc2)C1	12.9
O=C(Nc1ccccc1N1CCOCC1)c1cc(-c2ccncc2)nc2ccccc12	1.7
CCOC(=O)c1sc(NC(=O)CSc2nccc(C)n2)nc1C	6.7
O=C(COC(=O)/C=C/c1nc2ccccc2s1)Nc1cccc(Cl)c1Cl	4.9
CNC(=O)c1ccsc1NC(=O)CCS(=O)(=O)c1ccccc1	38.0
Cc1c(OCC(F)(F)F)ccnc1CS(=O)c1nc2ccccc2[nH]1 (configuration not stated)	11.6
Cc1ccc(NC(=O)C(CC(C)C)NC(N)=O)cc1Cl (configuration not stated)	12.6
COC(=O)[C@@H]1C[C@@]2(O)[C@H](O)[C@H](O)[C@H](O)C[C@H]2N1Cc1ccc(-c2ccccc2)cc1	13.9
O=C1CCC(=O)N1c1ccc(-c2nc3sc4c(c3c(=O)o2)CCC4)cc1	-11.2
CC1CCN(c2c(NCc3ccc(C(=O)NCc4ccccc4)cc3)c(=O)c2=O)CC1	19.7
Cc1sc2nc(COC(=O)c3ccc(Cl)c(N)c3)[nH]c(=O)c2c1C	9.4
CCN1CC(CN(C)Cc2cn(-c3ccc(C)cc3)nc2-c2ccc(F)cc2)CC1=O (configuration not stated)	13.7
Cc1ccc(S(=O)(=O)N2CCCOC2CNC(=O)C(=O)NCc2ccncc2)cc1 (configuration not stated)	16.0
S=c1[nH]ccn1-c1ccccc1Cl	15.7&10.6
Cc1sc(NC(=O)c2ccco2)c(C(=O)c2ccc(Cl)cc2)c1C	17.3
CCOC(=O)c1c(NC(=O)C2C3C=CC(C3)C2C(=O)O)sc2c1CC(C)(C)OC2 (configuration not stated)	2.6
Going on with the list:
SMILES	Biofilm kill mix
CN(c1ccccc1)S(=O)(=O)c1cccc(NC(=O)CN2CCCc3ccccc32)c1	19.1
CC(C)(C)OC(=O)[C@H](Cc1ccccc1)NC(=O)c1[nH]cnc1C(=O)Nc1ccc(Cl)cc1	5.8
O=C(Nc1ccc(F)cc1)C1CC(=O)n2c(nc3ccccc32)N1 (configuration not stated)	16.0
Cn1c(SCC(=O)NNC(=O)Nc2ccc(Cl)cc2)nnc1-c1ccccc1	20.4
c1ccc(CCCNc2ncccn2)cc1	6.0
O=C(NCC1(N2CCOCC2)CCCCC1)c1cccc(S(=O)(=O)N2CCc3ccccc3C2)c1	12.3
COc1ccc(CSc2nnc3[nH]c(=O)cc(N)n23)cc1	21.9
Cc1nc(S(=O)(=O)c2ccc(Br)cc2)nc2c1CCC2	15.5
Cc1cc(C)n(-c2ccc(F)cc2CN2CCN(Cc3ccccc3)C(CCO)C2)n1 (configuration not stated)	8.6
Cc1ccc2c(c1)C1CN(C)CCC1N2C(=O)c1ccc(Cl)c(S(=O)(=O)N2CCOCC2)c1 (configuration not stated)	-9.3
CC(=O)c1c(C)[nH]c(C(=O)OCc2ccc(Br)cc2)c1C	9.0
Cc1ccc(-n2nnnc2-c2cnn(-c3cccc(F)c3)c2C(F)(F)F)cc1	9.4
CCn1c(SCC(N)=O)nc2cc(S(=O)(=O)N3CCOCC3)ccc21	19.7
C#CCOCCOCCOCCNc1nc(N2CCN(C(=O)Cn3cc(CC(C)O)nn3)CC2)nc(N2CCN(C(=O)Cn3cc(CC(C)O)nn3)CC2)n1 (configuration not stated)	7.9
O=C(NC(=S)N1CCOCC1)C12CC3CCC(CC(C3)C1)C2	15.8
Cc1cc(-c2cc(C(=O)NC3CCCC3)on2)nc(NC2CCCC2)n1	7.1
COC(=O)c1oc2ccccc2c1NC(=O)/C=C/C(=O)O	6.7
Cc1ccccc1C(=O)Nc1c(-c2cccs2)c(=O)c2ccccc2n1C	18.5
O=C(O)c1ccc(N/N=C/c2cc3c(cc2[N+](=O)[O-])OCO3)cc1	4.5
Cc1nn(Cc2ccc(Cl)cc2)c(C)c1NC(=O)CSc1n[nH]c(C)c1[N+](=O)[O-]	23.9
O=C(Nc1ccccc1)/C(=C/c1ccc([N+](=O)[O-])cc1)NC(=O)c1ccccc1	-4.6
Cc1ccc(Cl)cc1NC(=S)N(C)N	2.7
Oc1ccc(Br)cc1/C=N/Nc1nc(N2CCCCC2)nc(N2CCOCC2)n1	13.5
COc1ccc(CCNC(=O)Nc2ccc3c(c2)OCO3)cc1OC	9.1
COc1cccc(N=Nc2c(N)[nH][nH]c2=O)c1	11.2

Five of these compounds, reformatted.
molecule | Biofilm kill mix
CCOC(=O)c1sc(NC(=O)CSc2nccc(C)n2)nc1C | 6.7
O=C(COC(=O)/C=C/c1nc2ccccc2s1)Nc1cccc(Cl)c1Cl | 4.9
CNC(=O)c1ccsc1NC(=O)CCS(=O)(=O)c1ccccc1 | 38.0
Cc1c(OCC(F)(F)F)ccnc1CS(=O)c1nc2ccccc2[nH]1 (configuration not stated) | 11.6
Cc1ccc(NC(=O)C(CC(C)C)NC(N)=O)cc1Cl (configuration not stated) | 12.6

At a glance, part of the list above.
SMILES	Biofilm kill mix
CN(c1ccccc1)S(=O)(=O)c1cccc(NC(=O)CN2CCCc3ccccc32)c1	19.1
CC(C)(C)OC(=O)[C@H](Cc1ccccc1)NC(=O)c1[nH]cnc1C(=O)Nc1ccc(Cl)cc1	5.8
O=C(Nc1ccc(F)cc1)C1CC(=O)n2c(nc3ccccc32)N1 (configuration not stated)	16.0
Cn1c(SCC(=O)NNC(=O)Nc2ccc(Cl)cc2)nnc1-c1ccccc1	20.4

Carrying on:
SMILES	Biofilm kill mix
COc1ccc(-n2c(-c3ccccc3)c[n+]3c2CCC3)cc1	20.8
CNc1ccc(/C=C(\CCC(=O)O)c2nc3ccccc3s2)cc1[N+](=O)[O-]	25.9
Cc1cccc(NC(=S)NCC(c2ccccc2)N(C)C)c1 (configuration not stated)	12.4
COC(=O)c1cc(-c2ccc(Cl)cc2)n[nH]1	25.9
CCCCn1c(NS(=O)(=O)c2ccc(C)cc2)c(S(=O)(=O)c2ccccc2)c2nc3ccccc3nc21	15.1
Cc1ccc(SCC(=O)Nc2ccc(N3CCOCC3)cc2)cc1	11.6
Cc1ccccc1C(=O)OCCN(C)Cc1ccccc1	11.4
COc1cccc(C2SCC(=O)N2c2ccc(Br)cc2)c1OC (configuration not stated)	5.0
CCOc1cc(/C=C2\SC(=S)N(NC(=O)c3cccnc3)C2=O)ccc1O	12.3
CCC(=O)c1ccc(N2CCN(C(=O)COc3ccccc3F)CC2)c(F)c1	18.4
CC(=O)C1C(c2cccc([N+](=O)[O-])c2)C2C(C)=NN=C2CC1(C)O (configuration not stated)	8.5
CCOc1ccc(C2CC(c3ccc(F)cc3)n3ncnc3N2)cc1 (configuration not stated)	20.3
Cc1c(NC(=O)/C(C#N)=C/c2cccs2)c(=O)n(-c2ccccc2)n1C	12.6
COc1cccc(-c2cc(C(F)(F)F)n3nc(C(=O)N4CCCCC4c4cccnc4)cc3n2)c1 (configuration not stated)	3.0
CC(C)C(=O)NC(=S)Nc1nnn(C)n1	15.0
CC1=Nc2nc(N3CCCCC3)c(C#N)c3c4c(nc(c23)N1)N(c1ccc(C(C)C)cc1)C(=O)C4	14.0
CN1CCN(S(=O)(=O)c2ccc(NCc3ccc4c(c3)OCO4)nc2)CC1	3.4
CC(C)c1cc(-c2cc(C(=O)NCc3ccccc3)on2)nc(NC2CCCC2)n1	11.3
C(=N\Nc1nc2ccccc2[nH]1)/c1ccccn1	28.5
CC(=O)c1ccc(NC(=O)C(C)n2c3ccccc3c3nc(=O)cc(C)n32)cc1 (configuration not stated)	-1.5
CN(C)CC/C=C1/c2ccccc2Sc2ccc(Cl)cc21	5.1
Brc1ccc(-c2cn3ccccc3n2)cc1	12.6
Cc1ccc(NC(=S)Nc2ccc(Cl)c(Cl)c2)c(OC(F)F)c1	12.6
Cc1ccc(/C=C/C(=O)OCC(=O)Nc2ccccc2Sc2ccccc2)cc1	8.0
COc1cc(/C=N/NC(=O)CCN2CCN(c3ccccc3)CC2)cc(OC)c1OC	9.2
Cn1cc(CNCc2cn[nH]c2-c2ccc(F)cc2)c(-c2ccc3c(c2)OCCO3)n1	18.4
O=C(CCn1ccnc1)Nc1nc2ccccc2[nH]1	3.8
COc1ccc(NC(=O)CSc2nc3ccccc3c(=O)n2Cc2cccs2)c(OC)c1	12.9
